Ecoli rRNA inh: reduced GFP signal of wild-type E. coli, primary screen, bacterial rRNA inhibitor project, GFP/RFP fluorescence, OD600, single point; E. coli WT GFP vs humanized-ribosome RFP mutants, 24 h; stronger effect = lower value; DMSO median 0, no signal -100; 350,000 compounds, 1.6% hits; AID 720706, 2013; GFP signal change (wild-type ribosome), % (no concentration beside the values);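 active means significant combined selectivity score with lowered wild-type GFP, culture density cut under 30%, mutant RFP and density less affected; inactive means any of these conditions unmet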; further: one replicate is shown; some compounds called inactive have numbers as strong as hits
AF4-AF9 inh: inhibitors of AF4 peptide binding to AF9, primary screen, biochemical, AlphaScreen, biotin-AF4 peptide, FLAG-AF9, single point; inhibition, % at 10 µM; 350,000 compounds, 0.47% hits;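 active means every replicate reaching a set inhibition limit, whatever the replicate mean, cut at about 25% in these data; inconclusive means mean inhibition reaches that limit but some replicates miss it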;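 further: 0% = plate neutral control median and 100% = total signal loss; the record names both 10 and 1 µM as test concentration; the first replicate is given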
Target sequence (P42568 whole entry, looked up): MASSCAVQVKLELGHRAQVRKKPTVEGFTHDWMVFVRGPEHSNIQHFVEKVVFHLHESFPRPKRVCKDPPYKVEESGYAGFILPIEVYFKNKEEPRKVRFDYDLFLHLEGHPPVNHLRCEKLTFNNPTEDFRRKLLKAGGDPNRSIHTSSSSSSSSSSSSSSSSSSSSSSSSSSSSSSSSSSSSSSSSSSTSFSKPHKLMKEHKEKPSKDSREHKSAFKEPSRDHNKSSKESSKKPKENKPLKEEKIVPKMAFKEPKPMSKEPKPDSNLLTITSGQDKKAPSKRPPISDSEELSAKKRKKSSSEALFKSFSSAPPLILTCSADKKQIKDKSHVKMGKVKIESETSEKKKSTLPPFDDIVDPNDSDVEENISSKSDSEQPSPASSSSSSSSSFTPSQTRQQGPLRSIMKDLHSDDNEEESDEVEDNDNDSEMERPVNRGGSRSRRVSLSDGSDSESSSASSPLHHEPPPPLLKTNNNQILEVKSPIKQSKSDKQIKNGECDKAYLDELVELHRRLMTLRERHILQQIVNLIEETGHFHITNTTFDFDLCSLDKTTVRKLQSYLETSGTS
Calb FLC: C. albicans growth inhibition with fluconazole, primary screen, CaCi-2 strain, Alamar Blue fluorescence. C. albicans CaCi-2 (fluconazole-resistant clinical isolate) + fluconazole, 48 h. growth inhibition, % (test concentration not listed). 300,000 compounds, 0.57% hits. AID 1979, 2009;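 active means most replicates above 75%; inconclusive means exactly half above 75%; inactive means most below 75%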;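 further: all wells also contain fluconazole at 8 µg/ml as a sub-toxic cotreatment; 0% = median of DMSO wells and 100% = median of geldanamycin control wells; wells of about 8 µL received 7.5 nL stock; the first replicate is given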
T cruzi inh: inhibitors of intracellular T. cruzi growth, primary screen, luminescence, NIH3T3 host cells | 300,000 compounds, 1.4% hits | T. cruzi beta-gal in NIH3T3, 90 h | inhibition, % (no concentration beside the values);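 active means mean inhibition across valid replicates above about 55%, limit read from the data; inconclusive means mean below that limit but half or more replicates reach it; inactive means mean below it, under half of replicates reach it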;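 further: signal also drops with host cell toxicity which is not excluded here; 0% = plate median of DMSO wells and 100% = zero luminescence signal; higher percent means less beta-gal luminescence so fewer parasites; stock transfer was 50 nL into about 50 µL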
Beta apoptosis: inhibitors of cytokine-induced beta cell apoptosis, primary screen, luminescence | INS-1E cytokine-induced death, ATP luminescence, 48 h; percent of positive-control rescue, neutral wells zero | protection from apoptosis, % (no concentration beside the values) | 300,000 compounds, 0.8% hits | AID 435005, 2010;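 active means all replicates at 75% or more, or half of them and the mean; inconclusive means half reach 75% but not the mean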;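 further: 0% = cytokine-treated negative control wells and 100% = positive control rescue; higher means more ATP so stronger rescue from cytokine killing; wells of about 40 µL received 100 nL stock; the first replicate is given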
Bfl-1 A1 inh: caspase 3/7 activation in MEF A1-2A-BIM cells, primary screen, A1 inhibitor project, cell-based, luminescence, HTS | Caspase-Glo 3/7 luminescence, 3 h; percent of clofoctol response, vehicle zero | caspase activation, % (no concentration beside the values) | 330,000 compounds, 0.066% hits;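 active means over half of replicate activation scores above 10%, or exactly half above 10 with the replicate mean above 10; inconclusive means replicate mean below 10 yet half the replicates above 10; inactive means over half of replicates below 10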;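 further: wells of about 30 µL received 50 nL stock; many hits fall short of the cut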
Vif TR-FRET: inhibitors of Vif binding to APOBEC3G peptide, primary screen, biochemical, TR-FRET, GST-Vif 1-94, biotin-A3G peptide, dose response retest (AID 1117319); inhibition, %; hits with a dose series show IC50 in µM; TR-FRET GST-Vif / biotin-A3G peptide binding; higher % means a stronger effect; test concentration not given here; strong numbers were not always called active; 260,000 compounds, 0.57% hits;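 active means above the screen mean plus three standard deviations and confirmed in dose response; inconclusive means results disagree or hit not tested in dose response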;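 further: Vif residues 1-94 fused to GST binding biotinylated APOBEC3G peptide 110-148; 0% = full assay without inhibitor and 100% = GST in place of GST-Vif; retest series ran down from 100 µM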
RanGTP-Imp inh: inhibitors of RanGTP-importin-beta interaction, primary screen, biochemical, FRET, CFP-Ran, YFP-importin-beta, homogeneous; Ran GTPase (GTP-bound) - importin-beta complex; cell-free CFP-Ran/YFP-importin-beta FRET ratio; inhibition, % (no concentration beside the values); 300,000 compounds, 1.1% hits; AID 2216, 2009;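 active means most replicates above 15%; inconclusive means exactly half above 15%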;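 further: 0% = DMSO wells and 100% = Ran loaded with GDP instead of GTP; wells of about 40 µL received 100 nL stock; the first replicate is given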
Ecoli rRNA inh OD600: recorded beside Ecoli rRNA inh, whose call it bears; OD600 change, %; measured here: OD600 growth;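 optical density of the mix in the first replicate; 0 = DMSO median and -100 = no signal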
Ecoli rRNA inh RFP: also measured in Ecoli rRNA inh; calls as there; RFP signal change, %; measured here: RFP humanized mutant strains;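 first replicate; 0 = DMSO median and -100 = no signal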
* = called active by the depositor; ? = inconclusive; . = not tested or not shown; & = joins results of further samples.

SMILES | Ecoli rRNA inh | Ecoli rRNA inh OD600 | Ecoli rRNA inh RFP | AF4-AF9 inh | Calb FLC | T cruzi inh | Beta apoptosis | Bfl-1 A1 inh | Vif TR-FRET | RanGTP-Imp inh
COc1ccc(-c2cc(C(=O)NCc3ccco3)c3ccccc3n2)cc1OC | -5 | -3 | -1.5 | -4.5 | 4 | 7 | . | 0.1 | . | -0.7
CC1CN(CCOc2ccccc2-c2ccccc2)CC(C)O1 (stereo unspecified) | -46 | -67 | -23 | -3.4 | -8 | -10 | -2 | -0.1 | -3% | -1.9
O=C(CC(=O)Nc1ccccc1[N+](=O)[O-])Nc1ccccc1[N+](=O)[O-] | -15 | 3 | -1.8 | -1.7 | -10 | 2 | -4 | -0.8 | -3% | 1.5
COc1cc(OC)cc(-c2nnc(Nc3nc4c(F)cccc4s3)o2)c1 | . | . | . | . | 115* | -23 | 18 | 0.4 | -59%&31% | 1.6
CC1(C)CC(NC(=O)C2CCC(=O)N(C3CC3)C2)CC(C)(C)C1 (stereo unspecified) | 4 | 8 | -1.3 | -0.7 | -3 | -5 | -1 | -1.6 | . | 1.9
Nc1ncc(Br)cc1S(=O)(=O)N1CCCCCC1 | 5 | 7 | -0.8 | -5.2 | 2 | 5 | -13 | 0.5 | . | -2.0
Cc1csc(NC(=O)c2ccc3nc[nH]c3c2)n1 | 3 | 1 | -0.3 | -1.9 | 0 | 3 | . | -9.6 | . | 6.7
O=C(Nc1ccc(Cl)c([N+](=O)[O-])c1)c1ccco1 | 3 | 7 | -1.9 | -9.8 | 6 | -5 | -3 | -1.6 | . | ?
O=C(O)/C=C/c1cn(-c2ccccc2)nc1-c1cccc([N+](=O)[O-])c1 | 8 | 5 | 2.4 | -0.3 | ? | 23 | 0 | 1.6 | -10% | 0.6
Cc1ccc(NC(=O)c2oc3ccccc3c2NC(=O)C2CCCO2)cc1C (stereo unspecified) | -13 | -14 | -3.7 | -2.1 | 2 | 29 | -5 | -1.2 | -6% | 0.3
O=C(NCC(=O)N1CCN(C/C=C/c2ccccc2)CC1)c1ccc(OC(F)F)cc1 | . | . | . | -1.0 | . | . | 2 | 0.1 | -7% | .
COc1ccc(-c2csc(NC(=O)Cc3ccccc3F)n2)c(OC)c1 | -12 | -34 | -5.0 | 2.3 | 29 | 9 | 6 | 3.0 | . | 3.3
CCN(CC)S(=O)(=O)c1ccc(Cl)c(NC(=O)c2ccc(C#N)cc2)c1 | . | . | . | . | -34 | 15 | 0 | 1.7 | -4% | -0.3
NC(=O)Cc1nc(-c2ccccc2)cs1 | . | . | . | . | 7 | -14 | -2 | 2.4 | -2% | 9.6
CSc1nc(=S)n(-c2cc(C)ccc2C)c(C)c1C(C)=O | 3 | 1 | 1.8 | -0.6 | -8 | -13 | -4 | -0.9 | 1% | -1.3
Cc1cccc(C)c1NC(=S)NN1CCN(C)CC1 | . | . | . | . | 2 | 9 | -9 | -0.5 | 5% | -1.4
Cc1ccc(NC(=O)COc2ccccc2)c(NC(=O)c2ccccc2C)c1 | . | . | . | . | -1 | 0 | -6 | 0.1 | 0% | 2.3
Cc1cc(C)c(C#N)c(SCC(=O)Nc2c(C)n(C)n(-c3ccccc3)c2=O)n1 | 9 | 9 | 0.2 | -3.2 | . | . | -6 | 0.1 | 4% | .
CCOC(=O)N1CCC(NC(=O)CCC(=O)N2CC(C)Oc3ccc(Cl)cc32)CC1 (stereo unspecified) | . | . | . | . | -3 | -12 | 4 | -0.3 | 2% | -0.5
O=C(CCC1CCCN(Cc2ccncc2)C1)NCc1ccc(F)c(F)c1 (stereo unspecified) | 11 | 3 | -2.3 | 0.2 | -8 | 56* | . | 0.6 | -8% | -2.2
CC1(C)C(=O)Nc2ccccc2N1C(=O)COC(=O)COc1cccc(C(F)(F)F)c1 | 0 | -5 | -1.4 | -3.7 | -2 | -3 | -10 | -1.3 | 2% | 4.2
C=CCOc1ccc2cccc(/C=N/NC(=O)c3cc4cc([N+](=O)[O-])ccc4s3)c2c1 | . | . | . | . | ? | -11 | 8 | -0.4 | 0% | ?
Cc1cccc(C2c3[nH]c4ccccc4c3CCN2C(=O)c2ocnc2C)n1 (stereo unspecified) | -25 | -24 | -3.0 | 5.7 | 27 | -12 | -5 | 0.1 | 8% | 5.3
CCN(CC)CCN(C(=O)C1=COCCO1)c1nc2cc3c(cc2s1)OCO3 | 15 | 6 | -5.1 | -66 | 5 | 43 | -2 | 0.9 | 1% | 0.3
CC1CCCCN1c1nc(-c2ccncc2)nc2ccccc12 (stereo unspecified) | . | . | . | . | -3 | 60* | -8 | -0.3 | -5% | ?
Next section.
SMILES | Ecoli rRNA inh | Ecoli rRNA inh OD600 | Ecoli rRNA inh RFP | AF4-AF9 inh | Calb FLC | T cruzi inh | Beta apoptosis | Bfl-1 A1 inh | Vif TR-FRET | RanGTP-Imp inh
CCCOC(=O)/C(=C\C=C\c1ccccc1)NC(=O)c1ccccc1 | -3 | -7 | -1.8 | 11 | 6 | 12 | -2 | 0.6 | 9% | -2.2
Cn1c(COc2ccccc2)nnc1SCC(=O)Nc1ccc(N2CCOCC2)c(Cl)c1 | . | . | . | . | 12 | 17 | -5 | -0.6 | -8% | 7.7
O=C(CN1CCN(CC(=O)Nc2ccccc2Cc2ccccc2)CC1)Nc1ccccc1Cl | 12 | 16 | 5.7 | 1.3 | -3 | -3 | 8 | -0.2 | 0% | 6.9
Cc1ccc(S(=O)(=O)N/N=C\c2ccc3c(c2)OCO3)cc1 | -1 | -14 | 1.3 | -12 | -8 | 1 | -4 | -0.2 | 5% | 4.7
Cc1ccc(C)c(N2CCN(C(=O)CCCN3C(=S)NC(C)(C)CC3C)CC2)c1 (stereo unspecified) | . | . | . | . | -19 | 43 | 9 | 1.7 | . | 0.5
COc1cc2c(cc1OC)CN(Cc1cccs1)CC2 | . | . | . | . | -13 | -9 | -2 | -0.7 | -3% | 18*
O=C(NCc1cccnc1)C(=O)NCC1OCCN1S(=O)(=O)c1ccccc1 (stereo unspecified) | 4 | 12 | -3.2 | -0.1 | 0 | 1 | 2 | -0.5 | -3% | 2.2
COCCCN(Cc1ccco1)C(=O)Cn1ncc2c(=O)oc3ccc(C)cc3c21 | 9 | 2 | 4.0 | 1.6 | 3 | -3 | -5 | 0.4 | 1% | 4.6
Cc1ccc2c(c1)N(CC(=O)NC(C)CCc1ccccc1)C(=O)c1cccnc1O2 (stereo unspecified) | -15 | -43 | -8.3 | 0.6 | 0 | -1 | 1 | 0.3 | . | -0.3
CCN(CC)S(=O)(=O)c1ccc(O)c(C(=O)OCC(=O)Nc2cc(C)c(C)cc2[N+](=O)[O-])c1 | 2 | 3 | -3.0 | -1.5 | ? | -4 | 5 | 0.5 | -9% | -0.3
COc1ccc(NC(=O)CNC(c2ccccc2)c2ccccc2)cc1Cl | 2 | -25 | 2.9 | -4.4 | 15 | 40 | 1 | 0.1 | . | 3.3
COc1ccc(N2C(=O)/C(=C/c3ccc([N+](=O)[O-])cc3)C=C2c2ccccc2)cc1 | . | . | . | . | -19 | 15 | -3 | 0.1 | 29% | -0.7
Cc1ccccc1OCC(=O)OCC(=O)N1CCCc2ccccc21 | 6 | -2 | -0.3 | -23 | -2 | -6 | -7 | 0.0 | 3% | -4.9
CCOCC(=O)Nc1c(C(=O)Nc2ccc(OC)cc2OC)oc2ccccc12 | . | . | . | . | 23 | 17 | 16 | -1.0 | -1% | 0.0
CC(=O)N(c1ccccc1Cl)S(=O)(=O)c1ccc(Cl)cc1 | 8 | 7 | -10 | 2.2 | 6 | -13 | 2 | 0.0 | 2% | 3.0
O=C(NCc1ccc2c(c1)OCO2)c1ccc(N2C(=O)C3CCCCC3C2=O)cc1 (stereo unspecified) | . | . | . | . | 3 | 4 | . | 0.4 | 12% | -1.8
O=C(NC(=S)NCCc1ccccn1)c1ccco1 | 17 | 10 | 4.9 | -1.3 | -35 | -11 | -2 | 1.6 | -6% | -4.9
O=C(CNC(=O)c1ccccc1)NCC(c1ccco1)N1CCCC1 (stereo unspecified) | 13 | 5 | -0.1 | 0.0 | . | . | 0 | 1.1 | . | .
CC1(C)CC(NC(=O)CC2CCCCC2)CC(C)(C)N1 | . | . | . | . | -4 | -12 | -12 | -0.1 | -6% | -2.7
Cc1ccc(C)c(S(=O)(=O)N2CCN(C(=O)Cn3c(C(F)(F)F)nc4ccccc43)CC2)c1 | . | . | . | . | -2 | 0 | -3 | 0.6 | -4% | 1.1
Cc1cc(N2CCN(C)CC2)nc2ccc(NC(=O)c3ccc(Br)o3)cc12 | . | . | . | . | -1 | 31 | 18 | -0.6 | -6% | 0.1
Cc1ccc(CNC(=O)CN(C)S(=O)(=O)c2cccc3cccnc23)cc1 | 6 | 5 | -4.4 | 5.5 | 0 | 7 | -1 | 0.5 | 3% | 3.5
COc1ccc(CCNC(=O)c2ccccc2NS(=O)(=O)c2c(F)cccc2F)cc1 | -19 | -50 | -2.8 | -14 | -1 | -14 | 8 | -0.7 | . | 3.5
CN(CC(=O)Nc1ccccc1F)CC(=O)Nc1ccc(F)c(F)c1F | -5 | -1 | -1.4 | -1.0 | 16 | -10 | 0 | 0.5 | -5% | -1.1
NC(=O)NC(CC(=O)NNC(=O)c1ccccn1)c1ccc(Cl)cc1 (stereo unspecified) | 12 | 14 | -1.7 | -0.8 | . | . | 0 | -0.1 | -16% | .
(cont.)
SMILES | Ecoli rRNA inh | Ecoli rRNA inh OD600 | Ecoli rRNA inh RFP | AF4-AF9 inh | Calb FLC | T cruzi inh | Beta apoptosis | Bfl-1 A1 inh | Vif TR-FRET | RanGTP-Imp inh
O=C(Cn1nnc(-c2ccncc2)n1)N1CCc2ccccc21 | 4 | 1 | -5.7 | -39 | 19 | -8 | . | -0.8 | 1% | 0.9
CCOCCc1nnc(NC(=O)c2ccc(OC)c(OC)c2)s1 | . | . | . | . | 6 | -6 | -4 | 0.3 | 2% | 1.9
CC(NC(=O)c1ccccc1F)c1nnc(SCC(=O)NC2CCCC2)n1C (stereo unspecified) | 3 | 12 | 2.5 | -4.0 | 0 | -9 | -3 | -0.1 | 6% | 8.1
C=CCN(c1ccc(C(=O)Nc2ccc(C)c(C)c2)cc1)S(C)(=O)=O | . | . | . | 1.1 | -2 | -34 | 8 | -1.4 | . | 2.0
N#CC(C#N)=C1C=CC=CN1/C(=C\c1ccccc1)C(=O)c1cccs1 | 13 | 7 | 3.8 | 3.0 | ? | 30 | -2 | 0.7 | 29% | 28*
Cc1cc(C)cc(N(CCC#N)C(=O)COC(=O)CN2C(=O)NC(C)(C)C2=O)c1 | -1 | -7 | -0.4 | -0.9 | 1 | -12 | -3 | 0.4 | -1% | -1.6
CCOC(=O)C1CCCN(C(=O)c2ccc(OCC)cc2)C1 (stereo unspecified) | . | . | . | . | 1 | -11 | -8 | . | ? | ?

Assay outcomes from PubChem.

These rows are one share of the data (hit frequency here may not be typical).
